VACV mCherry inh: vaccinia inhibition (mCherry reporter). actives 0.63% (n = 310,000). Vaccinia virus mCherry reporter infection, fluorescence; about a quarter of the inactives have no number. Potency, µM (highest dose often 36.5 µM), inactives show top-dose activity change, negative = inhibition, most hits filed as inhibitors. AID 720579; active = well fitted inhibition curve with a large enough effect; inconclusive = small, poorly fitted or top-dose-only effect; inactive = no such curve, though single readings can be large or run the other way; tested in A549 cells; further: nearly all actives have a fitted effect of over 35% in size; inactives centre near -10
VACV Venus inh: inhibitors of vaccinia virus (Venus reporter). actives 0.46% (n = 330,000). Potency, µM (doses to about 36.5 µM), for the others: at the top dose activity change, negative = inhibition, hits mostly inhibitors. Vaccinia virus Venus reporter expression, fluorescence; active means well fitted inhibition curve with a large enough effect; inconclusive means small, poorly fitted or top-dose-only effect; inactive means no such curve, though single readings can be large or run the other way; tested in A549 cells; further: nearly all actives have a fitted effect of over 30% in size; inactives centre near -10
* marks the source's active call; other numbers are inactive results; i = inactive; ? = inconclusive; . = no result given; & = joins results of further samples; [ ] = another dose, or the depositor's remark. On the % scale 0 is the no-effect control and ±100 the full control effect; potency means the concentration at half of the fitted maximal effect.

entry	molecule	VACV mCherry inh	VACV Venus inh
1	O=C(CN1CCN(S(=O)(=O)c2cc(Br)ccc2Br)CC1)NCc1ccccc1Cl	?	?
2	COC(=O)[C@H]1C2CC3c4[nH]c5ccccc5c4CCN3CC2CC[C@@H]1O (stereo not given in full)	-13%	-12%
3	O=C(NC(=S)Nc1ccc(NC(=O)c2cccs2)cc1)c1cc2ccccc2o1	?	?
4	OC[C@@H]1CN(Cc2cccs2)C[C@H](n2cnc3c(NC4CCC4)ncnc32)O1	-4%	-2%
5	CC(NC(=S)Nc1cccc(C(F)(F)F)c1)C(C)(C)C (stereo not given)	-6%	-21%
6	COc1ccc(S(=O)(=O)N2CCN(c3ccc4nnc(-c5ccccc5)n4n3)CC2)cc1	-16%	?
7	CC(NC(=O)c1ccco1)C(=O)N1CCc2ccccc2C1 (stereo not given)	-1%	-14%
8	O=C(/C=C/c1cccc([N+](=O)[O-])c1)NCc1ccc2c(c1)OCO2	-21%	-20%
9	COc1ccc(S(=O)(=O)N2CCCCCC2)cc1C(=O)N(C)Cc1ccc(F)cc1	i	-21%
10	CCCS(=O)(=O)NC(=O)C1(C)CCN(C(=O)c2nc(C)oc2C)C1 (stereo not given)	1%	8%
11	CC(C)Cn1c(O)c2ccc(C(=O)N=NC(=O)c3cccnc3)cc2c1O	i	-17%
12	O=C(C1CC1)N1N=C(c2cccc(Br)c2)CC1(O)C(F)(F)F (stereo not given)	?	?
13	Cc1cccn2c(=O)c3cc(C(=O)NC(C)c4ccccc4)c(=N)n(CCCO)c3nc12 (stereo not given)	-2%	2%
14	O=C(NC1CCCCC1)C(c1ccco1)N(C(=O)c1csnn1)c1ccc(Cl)cc1 (stereo not given)	-11%	-14%
15	COC(=O)C1=C(C(=O)OC)[C@@H]2N(C)c3ccc(OC)cc3[C@@]23C[C@@H](C(=O)OC)N(C(=O)NCCBr)C3=N1	i	-5%
16	CC(C)(C)C1CCC(C(=O)NCCc2ccc(S(N)(=O)=O)cc2)CC1 (stereo not given)	-14%	-10%
17	COc1cccc(Nc2nc(C)cc(C)c2C(N)=O)c1	-7%	-13%
18	CSc1ccccc1C(=O)C1CCCN(C(=O)c2cccc(Cn3cccn3)c2)C1 (stereo not given)	-23%	-26%
19	CNc1cc(-c2cc(OC)ccc2OC)ncn1	i	-1%
20	CC(C)c1ccc(Nc2ncccc2C(=O)O)cc1	-7%	-3%
21	CC(C)[C@@H](CO)NC(=O)c1ccc2c3n(nc2c1)-c1ccc(Cl)cc1CO3	?	?
22	CCCn1c(=O)c(C(=O)N/N=C/c2ccc(F)cc2)c(O)c2ccccc21	i	24%
23	CC1CCN(CCCn2c(SCC(=O)NC3CCCC3)nc3ccccc3c2=O)CC1	i	-14%
24	CN(CC(=O)Nc1cccc(F)c1)C(=O)c1cccc(-n2cccc2)c1	i	-4%
25	CCOC(=O)c1c(NC(=O)C(C)Sc2cn(CCNC(=O)c3ccccc3OC)c3ccccc23)sc2c1CCC2 (stereo not given)	-12%	-15%
26	O=C(NCCc1ccccc1)c1c(O)c2ccccc2[nH]c1=O	-2%	-4%
27	Cc1cc(C)nc(NS(=O)(=O)c2ccc(N/C=C3\CCCC3=O)cc2)n1	.	-17%
28	CCCOc1ccc(C(=O)CCC(=O)OCC(=O)Nc2cccc(S(N)(=O)=O)c2)cc1	-2%	-5%
29	CC(C)(C)c1nc(C(C)(C)C)c(Br)c(=O)[nH]1	-12%	-3%
30	CCCCOC(=O)C1=C(C)NC(=O)NC1c1ccc2c(c1)OCO2 (stereo not given)	-15%	-6%
31	CCc1nc(SCC(=O)Nc2ccnc3ccccc23)n[nH]1	-17%	-10%
32	CCS(=O)(=O)N1CCc2cc(C(=O)Nc3cc(C(F)(F)F)ccc3Cl)ccc21	-10%	-5%
33	Cc1ccccc1NC(=S)NCC(c1cccnc1)N(C)C (stereo not given)	i	-7%
34	CCN1C(=O)c2ccccc2Sc2ccc(C(=O)O)cc21	i	-2%
35	COc1cc(C=O)ccc1OCC(=O)NC(C)(C)C	-2%	-8%
36	COc1ccc(-c2nnc(SCC(=O)N3CCCCC3)o2)cc1	-2%&1%	11%&-4%
37	COC(=O)c1c(NC(=O)/C(C#N)=C/c2ccc(OC)cc2)sc2c1CCC2	-5%	14%
38	COc1cc(CNCc2cc3ccc(F)cc3nc2N2CCOCC2)cc(OC)c1OC	-3%	33%[activator]
39	CC1CCN(C(=O)CSc2nc(N)c3c4c(sc3n2)CN(C)CC4)CC1	.	-2%
40	CCN(CC)C(=S)SCC(=O)NC12CC3CC(CC(C3)C1)C2	-18%	-20%
41	COc1ccc(C)cc1NC(=O)Nc1nnc(N2CCCCC2)s1	-8%	-21%
42	Cc1cc(=O)[nH]c(SCC(=O)Nc2ccc(F)cc2)c1C#N	-2%	-18%
43	CSc1cccc(CN2CCC(Oc3ccc(C(=O)N4CCCCC4)cc3)CC2)c1	-12%	-20%
44	CCc1ccc(-n2c(N3CCN(c4cccc(Cl)c4)CC3)nc3ccccc3c2=O)cc1	-13%	-20%
45	CCOCCCNC(=O)C(NC(=O)c1ccc(NC(C)=O)cc1)c1ccccc1 (stereo not given)	-9%	-4%
46	Clc1cccc(COn2c(-c3ccc(Cl)cc3Cl)nc3ncccc32)c1	.	?
47	COc1ccc2nc(Nc3ccccc3)sc2c1	-17%	-15%
48	O=C(CCc1ccccc1)Nc1cc(C(=O)O)cc(C(=O)O)c1	i	10%
49	O=C(CN1CCc2ccccc21)NCc1ccccc1Cl	-16%	-2%
50	O=C(c1ccccc1)c1ccc2nc(N3CCCCC3)c3nncn3c2c1	-16%	-13%
51	CCOc1ccc(CC(C(=O)NN)C(=O)NN)cc1CN(C)C	14%	-4%
52	CCCCc1nc(SCC(=O)Nc2cc(C)on2)n[nH]1	-13%	-5%
53	COc1ccc(NC(=O)C2Cc3c(-c4cccc(C(C)=O)c4)ccnc3O2)cc1OC (stereo not given)	-10%	-25%
54	COc1cc(=O)n2c(c1C(=O)N(C)C(C)c1ccco1)CCN(C(=O)c1ccc(C(C)=O)cc1)CC2 (stereo not given)	i	0%
55	COc1ccc(OC)c(NC(=O)c2ccccc2NS(=O)(=O)c2cccc3cccnc23)c1	.	-13%
56	COc1ccc(NC(=O)C2CCCN(S(=O)(=O)c3ccc(F)cc3)C2)cc1 (stereo not given)	-3%	-10%
57	CCN1C(=O)N[C@@H](c2cccc(F)c2)C(C(=O)OC)=C1C	i	-5%
58	COc1cc([C@@H]2c3cc4c(cc3[C@H](OC(C)=O)[C@H]3COC(=O)[C@H]23)OCO4)cc(OC)c1OC	?	-29%
59	CC1CCCC(C)N1CCNC(=O)C1CCN(S(=O)(=O)N2CCCCC2)CC1 (stereo not given)	-21%	-1%
60	O=C(NCCCN1CCOCC1)C1CC(=O)N(C2CCCCC2)C1 (stereo not given)	-1%	0%

Whole records as entered above:
O=C(NCCCN1CCOCC1)C1CC(=O)N(C2CCCCC2)C1 (stereo not given) across the screens: VACV mCherry inh = -1%; VACV Venus inh = 0%
COc1cc([C@@H]2c3cc4c(cc3[C@H](OC(C)=O)[C@H]3COC(=O)[C@H]23)OCO4)cc(OC)c1OC across the screens: VACV mCherry inh = ?; VACV Venus inh = -29%

Other compounds.
entry	molecule	VACV mCherry inh	VACV Venus inh
61	CC(C)C1NC(C(=O)O)Cc2c1[nH]c1ccccc21 (stereo not given)	-7%	-7%
62	CCN(C(=O)CN1C(=O)S/C(=C\c2cccc(OC)c2)C1=O)C1CCS(=O)(=O)C1 (stereo not given)	-23%	-14%
63	Cc1ncc([N+](=O)[O-])n1CCOC(=O)c1cc(Cl)cc(Cl)c1N	-4%	-16%
64	CC(OC(=O)Cc1c[nH]c2ccccc12)C(=O)N(C)c1ccccc1 (stereo not given)	-9%	-4%
65	CCOc1ccc2cc(S(=O)(=O)N3CCCCC3)ccc2c1	-5%	0%
66	COc1ccccc1C(=O)OCC(=O)NC(=O)NC1CCCCC1	-7%	-3%
67	COc1cc(OC)cc(-n2c(=O)[nH]c3cc(C(=O)NCCc4ccc(C)cc4)ccc3c2=O)c1	-2%	10%
68	CC(C)c1ccc(NS(=O)(=O)c2ccc3[nH]cc(C(=O)NCC4CCCO4)c(=O)c3c2)cc1 (stereo not given)	-6%	-5%
69	Clc1ccc2nc(CSc3ccccc3)cn2c1	i	-30%
70	CNCCCOc1cc2nc(N3CCCN(C)CC3)nc(NC3CCN(C)CC3)c2cc1OC	-29%	-24%
71	O=C(COc1ccccc1-c1ccccc1)N/N=C/c1cccc2ccccc12	?	?
72	CN(Cc1ccco1)c1nc(-c2cccc(C#N)c2)nc2ccccc12	1%	-2%
73	O=C(N/N=C/c1ccc[nH]1)c1cccnc1	-13%	-9%
74	C[C@@H](C(=O)NCc1ccccn1)[C@@H]1C[C@@]1(C)[C@@H](NC(=O)OCc1ccccc1)c1ccccc1	i	-9%
75	Cc1nc2ccc(NS(=O)(=O)c3cccc([N+](=O)[O-])c3)cc2s1	-12%	0%
76	COc1ccc2c(c1)cc1n2CCN=C1N	-23%	-21%
77	O=c1onc(-c2ccccc2Cl)n1-c1ccccc1Cl	-13%	-4%
78	CC(C)c1ccc(NC(=O)Cc2c(C(=O)O)n(C)c3ccccc23)cc1	-2%	-12%
79	COC(=O)CCNC(=O)c1ccc2nc(Cc3ccc(OC)cc3)oc2c1	i	-12%
80	O=C(O)c1cccc(NC(=S)NC(=O)c2ccc(-c3ccc(Cl)cc3)o2)c1	-9%	-16%
81	O=C(Nc1cccnc1)c1coc(=O)c2ccccc12	-14%	-14%
82	COc1ccc(C(CNC(=O)COc2cc(C)ccc2Cl)N2CCCCC2)cc1 (stereo not given)	-12%	-3%
83	CCC(=O)OC(Cc1ccccc1)(c1ccccc1)C(C)CN(C)C (stereo not given)	-2%	-13%
84	O=C(O)c1cocc1C(=O)O	-14%	-4%

7 records picked at random from the list so far:
entry	molecule	VACV mCherry inh	VACV Venus inh
73	O=C(N/N=C/c1ccc[nH]1)c1cccnc1	-13%	-9%
77	O=c1onc(-c2ccccc2Cl)n1-c1ccccc1Cl	-13%	-4%
76	COc1ccc2c(c1)cc1n2CCN=C1N	-23%	-21%
84	O=C(O)c1cocc1C(=O)O	-14%	-4%
82	COc1ccc(C(CNC(=O)COc2cc(C)ccc2Cl)N2CCCCC2)cc1 (stereo not given)	-12%	-3%
78	CC(C)c1ccc(NC(=O)Cc2c(C(=O)O)n(C)c3ccccc23)cc1	-2%	-12%
83	CCC(=O)OC(Cc1ccccc1)(c1ccccc1)C(C)CN(C)C (stereo not given)	-2%	-13%

The list continues.
entry	molecule	VACV mCherry inh	VACV Venus inh
85	CCOC(=O)c1c(C)n(-c2ccccc2)c2ccc(OC(=O)c3ccccc3NC(=O)C(C)(C)C)cc12	-15%	-18%
86	COc1cc(NC(=O)CCNC(=O)Cn2ccc3ccccc3c2=O)cc(OC)c1OC	-14%&-11%	-7%&1%
87	O=C(NCCc1c[nH]c2ccccc12)/C(=C\c1cccnc1)NC(=O)c1ccco1	-11%	-7%
88	CC(=O)c1cccc(NS(=O)(=O)N2CCOCC2)c1	-10%	-5%
89	O=C(CN(c1cccc(Cl)c1)S(=O)(=O)c1ccc(Cl)cc1)N1CCc2ccccc2C1	-13%	2%
90	CCOC(=O)c1cnc2c(C)c(C)ccc2c1Nc1ccc(S(=O)(=O)Nc2ncccn2)cc1	-9%	-19%
91	Cc1nc2ccc(NC(=O)COc3ccccc3)cc2s1	-14%	-13%
92	CCOc1ccc(S(=O)(=O)N(CC(=O)NCCc2ccc(OC)cc2)c2ccccc2)cc1	-4%	-6%
93	Clc1cccc(OCCn2cncn2)c1Cl	-28%	-29%
94	Cc1ccc(C)c(S(=O)(=O)N2CCCC2CNC(=O)C(=O)Nc2ccccc2)c1 (stereo not given)	i	-25%
95	O=C(O)c1ccc(S(=O)(=O)c2ccc(Sc3ccc(C(=O)O)c(C(=O)O)c3)cc2)cc1	i	-18%
96	CCOc1ccccc1N1CC(C(=O)Nc2ccccc2N2CCCC2)CC1=O (stereo not given)	?	-12%
97	COc1ccc(-c2nc(NC(=O)c3ccc(OCC(=O)N4CCOCC4)c(OC)c3)sc2C)cc1	-10%	-7%
98	CS(=O)(=O)N1CCN(c2ccc([N+](=O)[O-])c(SCc3ccco3)c2)CC1	i	-18%
99	Cc1nn(-c2ccccc2)c(C)c1NC(=O)COC(=O)c1cccc(OC(F)F)c1	i	-14%
100	CCCC(=O)Nc1nnc(-c2ccc3c(c2)OCCO3)o1	-13%	-4%
101	CCCCCn1c(C(Cc2ccccc2)NC(=O)COC)nc2ccccc21 (stereo not given)	19%	5%
102	CCC1CN(C(=O)N2CCC(C(=O)N3CCN(c4cc(C)ccc4C)CC3)CC2)c2ccccc2O1 (stereo not given)	?	?
103	Cc1cc(C)c2nc(N3CCC(C(=O)N4CCCC4)CC3)sc2c1	-6%	-19%
104	COc1cccc(C(c2nnnn2C(C)(C)C)N2CCC3(CC2)C(=O)NCN3c2ccccc2)c1OC (stereo not given)	i	0%
105	CCCNC(=O)C1(C)CCN1C(=O)c1cc(C)n(C)n1 (stereo not given)	11%	-1%
106	CC(=O)c1cccc(N(CC(=O)NC2CCCCC2)C(=O)CCC(=O)Nc2nc(C)cs2)c1	i	-3%
107	CCc1nnc(NC(=O)CSc2nnnn2-c2cccc(C(C)=O)c2)s1	0%	-2%
108	Cn1c(CSCc2ccc(Cl)cc2)n[nH]c1=S	-1%	-28%
109	CCCCCC(=O)N1C[C@@H](n2cc(COC(=O)c3ccccc3)nn2)[C@H](O)C[C@@H]1c1ccc(OC)cc1	-5%	?
110	COc1cc(/C(C)=N/Nc2ccc(C(=O)O)cc2)cc(OC)c1OC	i	1%
